Screens: PubChem, National Center for Advancing Translational Sciences (NCATS)
Vaccinia Venus: vaccinia inhibition (Venus reporter). Vaccinia virus Venus reporter expression, fluorescence. Potency, µM (titrated, usually from 36.5 µM), for the others: at the top dose activity change, negative = inhibition, usual class: inhibitors. 0.46% of 330,000 active. AID 720580; active means well fitted inhibition curve with a large enough effect; inconclusive means small, poorly fitted or top-dose-only effect; inactive means no such curve, though single readings can be large or run the other way; tested in A549 cells; further: nearly all actives have a fitted effect of over 30% in size; inactives centre near -10
Vaccinia mCherry: vaccinia inhibition (mCherry reporter). Vaccinia virus mCherry reporter infection, fluorescence; about a quarter of the inactives have no number. Potency, µM (series often up to 36.5 µM), for the others: at the highest dose activity change, negative = inhibition, actives largely listed as inhibitors. 0.63% of 310,000 active; active = well fitted inhibition curve with a large enough effect; inconclusive = small, poorly fitted or top-dose-only effect; inactive = no such curve, though single readings can be large or run the other way; tested in A549 cells; further: nearly all actives have a fitted effect of over 35% in size; inactives centre near -10
Active calls of the source: *; i = inactive; ? = inconclusive; / = not tested or not shown; & = joins results of further samples; [ ] = another dose, or the depositor's remark. On the % scale 0 is the no-effect control and ±100 the full control effect; potency means the concentration at half of the fitted maximal effect.

Start of the listing, in advance, four compounds:
Each structure is followed by: Vaccinia Venus, Vaccinia mCherry
Cc1ccc(NC(=O)CNNC(=O)c2cccc([N+](=O)[O-])c2)cc1[N+](=O)[O-]
    1%, ?
COc1ccc(CNC(=O)CCc2c(C)nn(-c3ccc(N4CCCC4)nn3)c2C)cc1
    -1%, 6%
Nc1nc(CN2CCN(c3ccccn3)CC2)nc(Nc2ccc(Cl)cc2)n1
    -23%, ?
C=CCn1c(-c2csc(-c3ccccc3)n2)n[nH]c1=S
    -28%, /

This part in full, from the start:
Each structure is followed by: Vaccinia Venus, Vaccinia mCherry
Cc1ccc(NC(=O)CNNC(=O)c2cccc([N+](=O)[O-])c2)cc1[N+](=O)[O-]
    1%, ?
COc1ccc(CNC(=O)CCc2c(C)nn(-c3ccc(N4CCCC4)nn3)c2C)cc1
    -1%, 6%
Nc1nc(CN2CCN(c3ccccn3)CC2)nc(Nc2ccc(Cl)cc2)n1
    -23%, ?
C=CCn1c(-c2csc(-c3ccccc3)n2)n[nH]c1=S
    -28%, /
Cc1cccc(C)c1OCc1cc(C(=O)N(C)Cc2nc3ccccc3[nH]2)no1
    ?, ?
Cn1c(C(=O)NCc2ccccn2)cc2c(=O)n3ccccc3nc21
    -7%, i
Cc1cc(NC(=O)Cn2nnc(-c3ccccc3N)n2)no1
    -2%, 0%
N#C/C(=C(/O)c1ccco1)c1nc2ccccc2[nH]1
    ?, -3%
COc1ccc2c(c1)[nH]c1c(=O)n(CCN3CCOCC3)cnc12
    -19%, -23%
COCCN1CCN(C(=O)c2cnn(-c3ncc4c(n3)-c3ccc(OC)cc3CC4)c2C2CC2)CC1
    -12%, -21%
COc1ccc(/C=C(\C#N)C(=O)OCC(=O)NC(C)c2ccccc2)cc1 (stereo not given)
    -2%, -3%
COc1ccc(CCNC(=O)Cn2c(-c3cccs3)cc3cc(F)ccc32)cc1OC
    -8%, -10%
Cc1ccc(C=Nc2ccccc2C(=O)Nc2ccccc2)cc1
    -13%, -25%
COC(=O)c1sccc1NC(=O)CNC(=O)c1ccccc1
    -18%, i
O=C(/C=C/c1ccc(Cl)cc1)Nc1ccccc1N1CCOCC1
    -4%, i
Cc1cc(C)n2nc(C(=O)NCc3cccc(C(F)(F)F)c3)nc2n1
    -10%, -8%
Cc1noc(COc2ccccc2OCC(N)=O)n1
    -9%, i
CCN1CCN(C(=O)c2cnn(-c3ccc(F)cc3)c2-n2cccc2)CC1
    -3%, -9%
COc1ccccc1NC(=O)CS(=O)(=O)c1cccc2nsnc12
    -3%, /
COC(=O)c1oc2ccccc2c1NC(=O)CN1CCCC1
    -14%, i

Record cards, from the list above. Screens in order: Vaccinia Venus | Vaccinia mCherry
Cc1cc(NC(=O)Cn2nnc(-c3ccccc3N)n2)no1 is entered as -2% | 0%
C=CCn1c(-c2csc(-c3ccccc3)n2)n[nH]c1=S is entered as -28% | /
COc1ccccc1NC(=O)CS(=O)(=O)c1cccc2nsnc12 is entered as -3% | /
COCCN1CCN(C(=O)c2cnn(-c3ncc4c(n3)-c3ccc(OC)cc3CC4)c2C2CC2)CC1 is entered as -12% | -21%
Cc1ccc(NC(=O)CNNC(=O)c2cccc([N+](=O)[O-])c2)cc1[N+](=O)[O-] is entered as 1% | ?

The list goes on.
Each structure is followed by: Vaccinia Venus, Vaccinia mCherry
COc1ccc(Nc2cc(C(=O)NCCCN3CCN(C)CC3)c3ccccc3n2)cc1
    -20%, i
Cn1nnnc1SCCNCc1ccc(Cl)c(Cl)c1
    12%, 18%
O=C(NCC(=O)N(c1cccc(F)c1)C(C(=O)NC1CCCC1)c1ccncc1)c1ccco1 (stereo not given)
    4%, -1%
c1ccc(COn2nnc3ccccc32)c(COn2nnc3ccccc32)c1
    -19%, i
O=C(NCCCn1ccnc1)/C(=C\c1cccs1)NC(=O)c1cccs1
    -12%, 1%
Cc1cccc(Nc2nc(N)nc(CN3CCC(C(N)=O)CC3)n2)c1C
    -1%, /
COc1ccc(CNC(=O)C(C)n2nc(C)c3sc4ccccc4c3c2=O)cc1OC (stereo not given)
    -9%, -12%
CC(C)(C)NC(=O)C(=O)NNC(=O)c1cccc(F)c1
    -14%, -13%
COc1ccc(Nc2nc(-c3ccccc3F)nc3ccccc23)cc1OC
    -15%, -22%
O=C1CCN(C(=O)C(Cl)Cl)N1
    -14%, i
O=C(NCc1ccccc1)C(c1ccccc1F)n1c(=O)c(-c2ccccc2)nc2ccccc21 (stereo not given)
    -21%, ?
Cc1ccc(S(=O)(=O)N2Cc3ccccc3CC2C(=O)Nn2cnnc2)cc1 (stereo not given)
    -2%, -9%
CCOC(=O)c1sc2nc(C)nc(NCc3ccc(Cl)cc3)c2c1C
    -25%, -19%
CC[N+]1(CC(=O)c2ccc(OC)cc2)CCCCC1
    -13%, -19%
CCOc1ccc(C(=O)/C=C/c2cn(CC(O)CN3CCc4ccccc43)c3ccccc23)cc1 (stereo not given)
    -19%, ?
Cc1cccc(CNc2ccnc(-c3ccc(C(=O)N(C)C)cc3)n2)c1
    0%, i
COc1ccc2nc(CNC(=O)C3CCC(=O)N(CCc4ccccc4)C3)[nH]c2c1 (stereo not given)
    -13%, -16%
CCC(=O)C1=C(c2ccc(F)cc2)N(C(=O)CC)n2c(nnc2-c2ccc(OC)cc2)S1
    -22%, -25%
O=C(NCC1OCCc2ccccc21)c1ccc(NC(=O)c2ccc(Cl)cc2Cl)cc1 (stereo not given)
    2%, -7%
CC(C)c1ccccc1NC(=O)CSc1nnc(COc2ccccc2)o1
    -2%, -11%
O=C1C=C(Nc2ccc(Cl)cc2)CC(c2ccco2)C1 (stereo not given)
    ?, /
COc1ccc(CN2CC[C@H]3C=CC[C@@H](C(=O)N4CCOCC4)[C@H]3C2=O)cc1OC
    -1%&-17%, i
COc1ccc(C=O)cc1CSc1nnc(COc2cccc3cccnc23)o1
    2%, /
OCCN1CCN(Cc2ccc3c(c2)CN(Cc2cnc(-c4ccccc4)s2)CCO3)CC1
    -5%, -11%
CCOC(=O)c1c(C)c(-c2ccccc2)n(CC(=O)Nc2cc(C)cc(C)c2)c1C
    ?, -16%
N#CC1c2ccccc2-n2nncc2CN1Cc1cc(Cl)cc(Cl)c1 (stereo not given)
    0%, -13%
COc1ccccc1C(=O)NCCC(=O)N(C)CC(=O)Nc1ccc(C)cc1
    -14%, -5%
CC(C)COc1ccc(/C(=N/O)c2ccccc2)cc1
    ?, i
CCN(C(=O)COC(=O)c1cccc(S(=O)(=O)N(CC)CC)c1)C1CCS(=O)(=O)C1 (stereo not given)
    -10%, -15%
S=P(N1CCCCCC1)(N1CC1)N1CC1
    -15%, -23%
O=[N+]([O-])c1cccc(/C=C/c2ccncc2)c1
    -2%, ?
Cc1ccc(CSc2nc3c(c(=O)[nH]2)C(c2cccc(F)c2F)CC(=O)N3)cc1 (stereo not given)
    -4%, 8%
Cc1cc(Nc2ccccc2)nc(N2CCOCC2)n1
    ?, /
CCCCn1c(=O)c(CCC(=O)OCC(=O)NCc2ccc(OC)c(OC)c2)nc2ccccc21
    -5%, i
Cc1ccc(NC(=O)c2ncn(CC(=O)NCc3ccc4c(c3)OCO4)n2)cc1C
    -17%, -20%
O=C(NC1CCCC1)C1CCN(c2nccs2)CC1
    -5%, /
O=C(CN1C(=O)NC2(CCCCC2)C1=O)Nc1ccccc1N1CCCC1
    -4%, -15%
Cc1ccc(Cn2c(O)c(N=O)c3ccccc32)cc1
    -23%, -19%
COc1ccc(Cl)cc1C(=O)NCC(=O)OCc1ccccc1
    -6%, -18%
CCOC(=O)c1c(NC(=O)C(C)Oc2ccccc2F)sc(C(C)=O)c1C (stereo not given)
    -24%, -8%
CCOC(=O)c1cc(NC(=O)NCc2ccco2)c(C)nc1C
    -8%, /
Cc1cc(NC(=O)CN2CCCCC2)no1
    -2%, i
Cc1[nH]c2ccccc2c1C(=O)COc1ccccc1F
    ?, -21%
Cc1ccc(S(=O)(=O)N2CC3C(=O)C[C@@H](c4ccccc4Cl)N(S(=O)(=O)c4ccc(C)cc4)C3CC2c2ccccc2)cc1 (stereo not given in full)
    19%, -1%
CCOc1ccc(Nc2n[nH]c(=S)s2)cc1
    0%, i
Cc1ccc(S(=O)(=O)N(C)c2ccc3c(ncn3C)c2[N+](=O)[O-])cc1
    -13%, i
Nc1nc(Nc2ccccc2)nc(N2CCOCC2)c1[N+](=O)[O-]
    -20%, -13%
COc1ccc(OCc2cc(C(=O)NCc3nc(C)cs3)no2)c(Cl)c1
    -9%, i
COc1ccc(-c2cc(C)nc3nc(N)nn23)cc1
    -6%, -13%
O=C(NC1CC2CCC1C2)c1ccc(CN2CCOCC2)cc1 (stereo not given)
    -5%, -10%
Cc1cccc(C)c1OCc1cc(C(=O)N2CCN(c3ccccc3)CC2C)no1 (stereo not given)
    -13%, i
NC(=O)COC(=O)c1cc(Cl)cc(Cl)c1N
    3%, -15%
COc1ccc(CNCC(=O)N2CCC3(CC2)OCCO3)cc1
    -19%, -19%
CC1=C(C(=O)OC(C)C)C(c2ccc(Br)s2)NC(=O)N1 (stereo not given)
    -13%, 0%
C=C(C)CNC(=S)NNC(=O)c1ccco1
    -18%, -6%
COc1cccc(C(c2nnnn2CCc2ccccc2)N2CCN(c3ccccc3)CC2)c1OC (stereo not given)
    ?, ?
Cc1cccc(OCC(=O)Nc2ccc3c(c2)OCO3)c1C
    -1%, -11%
COc1cc2c(cc1N/C=C(\C#N)c1nc(-c3ccc(F)cc3)cs1)oc1ccccc12
    5%, i
O=C(NC1CCCCC1)c1ccc(-n2cncn2)c([N+](=O)[O-])c1
    -10%, -18%
COc1cc(OC)cc(-n2nc(C(=O)N3CCC4(CC3)OCCO4)c3ccccc3c2=O)c1
    -10%, /

The list goes on.
Each structure is followed by: Vaccinia Venus, Vaccinia mCherry
CCN(CC)CCNC(=O)C1c2cc(OC)c(OC)cc2C(=O)N2CCc3ccccc3C12 (stereo not given)
    -12%, -15%
COc1ccc2cc3cc(C(=O)Nc4ccccc4N4CCN(C)CC4)oc3nc2c1
    ?, ?
COC(=O)c1cc(NS(=O)(=O)c2ccc(NCc3cccnc3)c(N)c2)cc(C(=O)OC)c1
    -15%, -11%
Cc1ccc(C2C(C(=O)c3ccco3)=C(O)C(=O)N2c2ncccn2)cc1 (stereo not given)
    0%[7.34 µM], 0%[7.34 µM]
COc1cccc(N2CCN(C(=O)c3cccc(NC(=O)c4nsc5ccccc45)c3)CC2)c1
    -23%, -17%
COc1ccc(NC(=O)Cn2c(=O)n(CC3CCCO3)c(=O)c3ccccc32)c(OC)c1 (stereo not given)
    -6%&3%, 1%
CC(C)CCn1c(SC(C)C(=O)NC2CC2)nc2ccccc2c1=O (stereo not given)
    -8%, -20%
Cc1cn(CC(=O)NCCNc2ccc([N+](=O)[O-])cn2)c(=O)[nH]c1=O
    -2%, -3%
COc1cccc(-c2cc(=O)c3cc(NC(=O)c4ccc(Cl)cc4)ccc3[nH]2)c1
    -3%, i
Cc1ccc(S(=O)(=O)/N=C(/Nc2ccc([N+](=O)[O-])cc2)c2ccccc2)cc1
    -27%, ?
Cc1ccc(Sc2ncccc2C(=O)NCC(c2ccc(F)cc2)N2CCOCC2)c(C)c1 (stereo not given)
    -26%, -2%
COc1ccccc1C(CNC(=O)c1ccc(C)c(S(=O)(=O)N2CCCCC2)c1)N1CCCC1 (stereo not given)
    -6%, -9%
O=S(=O)(Nc1ccc(O)c(Sc2nc3ccccc3s2)c1)c1cccc2ccccc12
    -23%, -12%
CC(=O)OC1CC(OC(C)=O)[C@]2(C)C(CC(O)[C@]3(C)C2CC[C@@]2(C)C(c4ccoc4)OC(=O)C4O[C@]432)C1(C)C (stereo not given in full)
    -10%, -14%
CC(C)(C)NC(=S)N/N=C\c1ccc(-c2ccc([N+](=O)[O-])cc2)o1
    -2%, -3%
CCC(=O)c1cn(CC(=O)NCc2ccco2)c2ccccc12
    ?, /
O=C(C1=C[C@H](c2ccc(C(F)(F)F)cc2)C[C@H](OCc2ccc(CO)cc2)O1)N1CCCCCCC1
    -10%, -3%
O=C(COC(=O)c1ccc[nH]c1=O)Nc1cc(S(=O)(=O)N2CCCCCC2)ccc1Cl
    -11%, -16%
COc1ccc(C)cc1S(=O)(=O)N1CCN(C/C=C/c2ccccc2)CC1
    -20%, ?
Cc1nnc(SCc2cccc3ccccc23)n(N)c1=O
    -20%, -8%
OC(c1ccc(F)c(F)c1)c1ncc(-c2ccccc2F)[nH]1 (stereo not given)
    -2%, -7%
CC(NC(=O)c1c(O)c2ccccc2[nH]c1=O)c1ccccc1 (stereo not given)
    0%, -9%
COc1ccc(-c2csc(N(C)C(=O)c3cccs3)n2)cc1
    -7%, -5%
Cc1ccccc1-c1nnc(SCC(=O)N(C)C2CCCCC2)o1
    -5%, -7%
CCOC(=O)N1CCN(C(=O)c2cccc(S(=O)(=O)Nc3ccccc3Cl)c2)CC1
    2%, -10%
CN(C)c1ccc(NC(=O)c2ccncc2)c2ccccc12
    -11%, /
CCCCN1C(=O)C(CC(=O)NC2CCCC2)CC(C(=O)N(C)C)=C1C (stereo not given)
    -4%, -15%
Cc1ccc(CNC(=O)Cn2ccn(-c3cccc(Cl)c3)c(=O)c2=O)cc1
    -6%, -9%
COc1ccc(C2=NNC(c3ccco3)=Nc3ccc(F)cc32)cc1
    -9%, -14%
COc1ccc(OCC(=O)N2CCN(C(=O)c3cccc(F)c3)CC2)cc1
    -21%, /
O=C1Nc2cc(Cl)c(Cl)cc2N(O)N1c1ccccc1Cl
    1%, 4%
